Sa helicase inh = blocks Staphylococcus aureus DNA helicase. 0.05% of 120,000 active. AID 485395. purified S. aureus helicase, fluorescence unwinding assay; about half of the hits fall short of the stated cut. inhibition, %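 (tested at about 80 µM)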;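 active = both duplicates at 50% or more, or one of them with a favoured structure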;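 note: 0% = mean of negative control wells and 100% = mean of positive control wells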
MgrA DNA FP = S. aureus MgrA-DNA binding modulation | fluorescence polarization | inhibition, %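 (about 10 µg/mL by stock and volumes)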 | 0.13% of 84,000 active;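 active = above 50% in either of two replicates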;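 note: 0% = protein plus DNA without compound and 100% = DNA alone without protein; higher means less MgrA bound to DNA so lower polarization; one replicate is shown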
Starred values were filed as active, the others as inactive; nt = no result given; & = joins results of further samples.

Start of the data: the first 7 records (preview)
SMILES	Sa helicase inh	MgrA DNA FP
CC(C)(C)C(=O)CSc1nc(N)c(C#N)c(-c2cccs2)c1C#N	3.0	0.4
O=C(Nc1nc(-c2ccccc2)cs1)c1ccco1	-8.0	nt
Oc1c(C=Nc2ccccc2)sc2ccccc12	-36.0	-1.6
CCC(C)NC(=O)C1CCC(CNS(=O)(=O)c2ccc(C)cc2)CC1 (configuration not stated)	9.0	nt
O=C(Nc1nnc(-c2ccccc2Cl)s1)c1ccc(S(=O)(=O)N2CCCCC2)cc1	nt	-1.6
CCn1c(CSc2ncnc3sccc23)nc2cc(S(=O)(=O)N(C)C)ccc21	7.0	nt
N#C/C=C/N1CCN(C(c2ccccc2)c2ccccc2)CC1	-7.0	nt

The listing, repeating the preview:
SMILES	Sa helicase inh	MgrA DNA FP
CC(C)(C)C(=O)CSc1nc(N)c(C#N)c(-c2cccs2)c1C#N	3.0	0.4
O=C(Nc1nc(-c2ccccc2)cs1)c1ccco1	-8.0	nt
Oc1c(C=Nc2ccccc2)sc2ccccc12	-36.0	-1.6
CCC(C)NC(=O)C1CCC(CNS(=O)(=O)c2ccc(C)cc2)CC1 (configuration not stated)	9.0	nt
O=C(Nc1nnc(-c2ccccc2Cl)s1)c1ccc(S(=O)(=O)N2CCCCC2)cc1	nt	-1.6
CCn1c(CSc2ncnc3sccc23)nc2cc(S(=O)(=O)N(C)C)ccc21	7.0	nt
N#C/C=C/N1CCN(C(c2ccccc2)c2ccccc2)CC1	-7.0	nt
O=C(OCCC1(c2ccccc2)C(=O)c2ccccc2C1=O)c1cc2ccccc2oc1=O	7.0	-2.2
CC1(C)CC(=O)c2cc(O)ccc2O1	14.0	nt
CN(CCC(=O)O)Cc1cccnc1	4.0	-6.8
CCCCC(=O)Nc1ccc2c(c1)OCCO2	9.0	-1.7
c1ccc(-c2noc(C3CCCO3)n2)nc1 (configuration not stated)	2.0	nt
O=S(=O)(/C=C/c1ccccc1)Nc1ccc(F)cc1	-8.0	2.4
Cc1oc(C)c(C(N)=O)c1C(N)=O	17.0	-1.4
N#CCn1nc2ccccc2n1	-21.0	nt
N=c1c(C(N)=O)cc2c(=O)n3ccccc3nc2n1Cc1ccccc1	8.0	-3.2
Oc1[nH]c2ccc(Br)cc2c1N=NC(=S)NCC1CCCO1 (configuration not stated)	-4.0	nt
O=S(=O)(c1ccc2c(c1)OCCO2)N1CCC(O)(c2ccc(Cl)cc2)CC1	8.0	-2.7
O=C(O)C1CCCCC1C(=O)N1CCc2ccccc21 (configuration not stated)	8.0	-2.2
CCCNS(=O)(=O)c1ccc(Cl)cc1I	nt	1.9
O=C(CSc1nc(-c2ccccc2)cc(=O)[nH]1)N1CCc2ccccc21	2.0	1.9
O=S(=O)(CCSCCO)c1ccc(Cl)cc1	nt	-1.8
CNC(=O)CCCc1cn(Cc2ccccc2Cl)c2ccccc12	1.0	0.7
Fc1ccc(-c2csc(Cc3nnc4n3CCCCC4)n2)cc1	-14.0	-2.5

Some of these compounds in order of their number in MgrA DNA FP, low to high.
SMILES	Sa helicase inh	MgrA DNA FP
O=S(=O)(c1ccc2c(c1)OCCO2)N1CCC(O)(c2ccc(Cl)cc2)CC1	8.0	-2.7
Fc1ccc(-c2csc(Cc3nnc4n3CCCCC4)n2)cc1	-14.0	-2.5
O=C(CSc1nc(-c2ccccc2)cc(=O)[nH]1)N1CCc2ccccc21	2.0	1.9

5 structures out of the list, sorted by number of heavy atoms, low to high:
SMILES	Sa helicase inh	MgrA DNA FP
N#CCn1nc2ccccc2n1	-21.0	nt
Oc1[nH]c2ccc(Br)cc2c1N=NC(=S)NCC1CCCO1 (configuration not stated)	-4.0	nt
CNC(=O)CCCc1cn(Cc2ccccc2Cl)c2ccccc12	1.0	0.7
O=S(=O)(c1ccc2c(c1)OCCO2)N1CCC(O)(c2ccc(Cl)cc2)CC1	8.0	-2.7
O=C(OCCC1(c2ccccc2)C(=O)c2ccccc2C1=O)c1cc2ccccc2oc1=O	7.0	-2.2

Remaining list, next part
SMILES	Sa helicase inh	MgrA DNA FP
O=C(CCc1ccccc1)N1CCN(CCO)CC1	18.0	nt
O=C(c1ccccc1O)N1CCOCC1	13.0	0.0
CCN(CC)C(=O)Cn1c(=O)oc2ccccc21	-2.0	nt
Cc1cccc(CN2CCN(C(c3ccccc3)c3ccc(Cl)cc3)CC2)c1 (configuration not stated)	nt	-4.0&-1.4
Clc1ccc(C2NCCS2)cc1 (configuration not stated)	8.0	0.6
CC(=O)N(CCC(c1ccccc1)c1ccco1)Cc1ccc(F)cc1 (configuration not stated)	11.0	5.9
Cn1nc(-c2ccc(C(=O)NCC3CCCO3)cc2)c2ccccc2c1=O (configuration not stated)	4.0	0.9
O=C(CSc1cccc[n+]1[O-])NCC1CCCO1 (configuration not stated)	13.0	0.3
Cc1sc2ncnc(N3CCN(CCO)CC3)c2c1C	-20.0	1.1
N#Cc1c(-c2ccccc2)nc2sccn12	nt	4.0
O=C(CCCn1c(=O)[nH]c2ccsc2c1=O)N1CCCCC1	6.0	nt
Cc1c(Cc2ccccc2)c(Cl)n2c(nc3ccccc32)c1C#N	12.0	1.5
CCS(=O)(=O)N1Cc2ccccc2CC1C(=O)NCCc1ccccc1 (configuration not stated)	0.0	nt
COc1cccc(NC(=S)N(CCN(C)C)C(C)c2ccncc2)c1 (configuration not stated)	16.0	0.4
Cc1ccc(CNC(=O)CSc2nc(N3CCCCC3)nc(N3CCCCC3)n2)cc1	13.0	-0.5
CC1(N=Cc2ccccc2)CCS(=O)(=O)C1 (configuration not stated)	-1.0	nt
Nc1c(C(=O)c2cccs2)sc2nsc(SCCN3CCCCC3)c12	nt	4.8
O=C(OCc1cn2cc(Cl)ccc2n1)C1=NN(c2ccccc2)C(=O)CC1	11.0	nt
Cc1ccc(CN2CCN(C(=O)C3CC=CCC3C(=O)O)CC2)cc1 (configuration not stated)	13.0	7.4
Cc1ccc(C(=O)c2c(C)ccc3ccccc23)cc1C	nt	-3.1
O=C(N/N=C/c1ccc(N2CCCCC2)cc1)c1cccnc1	-9.0	nt
O=C(CNC(=O)c1ccc2c(c1)OCO2)Nc1cccnc1	13.0	nt
Cc1cc2c(cc1C)C(=O)C(N1CCOCC1)=C(c1ccccc1)C2=O	1.0	nt
O=C(N/N=C/c1ccc2c(c1)OCCO2)c1ccncc1	-2.0	nt
O=C(C1Sc2nnc(-c3ccccc3)n2NC1c1ccccc1)N1CCCCC1 (configuration not stated)	-12.0	nt
[O-][n+]1ccccc1SC1=COCCC1	8.0	-0.7
N#Cc1nc(COc2cccc(Cl)c2)oc1N1CCCC1	4.0	0.7
c1ccc(Cn2nnc3c(Sc4nnc(-c5ccncc5)o4)ncnc32)cc1	16.0	nt
Cc1cc(NC(=O)CNCC2CCCCC2)no1	-4.0	2.8
C=CCN(C(=O)c1ccc(C)s1)c1nc(-c2ccc(S(C)(=O)=O)cc2)cs1	14.0	nt
CC1CN(C(=O)C2CCC2)CC(C)O1 (configuration not stated)	-16.0	-0.8
CC(C)c1cc[nH]c1-c1ccccc1	2.0	-1.2
O=C1CCCN1CCC12CC3CC(CC(C3)C1)C2	16.0	-2.2
Cc1ccccc1Sc1ccccc1C(=O)O	nt	-2.8
O=C(NCC(c1ccco1)N1CCCCC1)c1ccccn1 (configuration not stated)	-4.0	nt
CCn1c(-c2ccc(F)cc2)csc1=Nc1ccc(C)cc1	17.0	1.9
CC(=O)NC(C)c1nc2ccccc2n1Cc1ccccc1C (configuration not stated)	-18.0	nt
CC(=O)Nc1cccc(-c2cnc3ccccc3n2)c1	4.0	nt
Cn1c(=O)[nH]c(=O)c2[nH]c(CN3CCOCC3)nc21	-11.0	-3.7
CC(C)(C)C(=O)/C=c1\s/c(=C\c2c(F)cccc2F)c(=O)n1CC(=O)NCc1ccco1	-1.0	nt
O=S(=O)(NC1CCCCC1Nc1ccccc1Br)c1ccccc1 (configuration not stated)	15.0	0.3
Cc1cc(Br)ccc1NC(=O)CCNS(=O)(=O)c1cccc2nsnc12	-3.0	nt
C[C@H](NC(=O)c1ccc(C(C)(C)C)cc1)C(=O)N1CCOCC1	-21.0	nt
CCCc1c(-c2nc(-c3ccc(Cl)cc3)no2)cnn1-c1ccccc1	nt	0.1
CC(SC1CCCC1)C(=O)NC(C)(C#N)C(C)C (configuration not stated)	-13.0	nt
O=C(Nc1ccc(-c2nnc(-c3ccccc3)o2)cc1)C1CCCC1	6.0	2.0
CCCn1c(CCCNC(=O)c2ccccc2)nc2ccccc21	-2.0	nt
O=C(CSc1nccc(C(F)(F)F)n1)c1ccc(Br)cc1	nt	0.8
O=C(Nc1ccc(Cl)cc1)NC(C(=O)O)c1ccccc1 (configuration not stated)	9.0	0.9
CCN(CC)Cc1cc(NC2=NS(=O)(=O)c3ccccc32)ccc1OC(=O)c1ccccc1	nt	2.3
COCCn1cnnc1SCC(=O)Nc1ccc(Cl)cc1F	5.0	nt
CC1CC(C)CN(C(=O)CSc2n[nH]c(N)n2)C1 (configuration not stated)	-10.0	nt
CCCN(CC(=O)Nc1ccc(F)c(F)c1F)Cc1cc(=O)n2ccsc2n1	10.0	nt
Cc1sc2c(c1C)C(=O)/C(=C\Nc1ncccn1)S(=O)(=O)N2C	7.0	nt
O=C1CSCC(=O)N1c1ccccn1	1.0	nt
S=c1sc2ccccc2n1CSc1nc2ccccc2[nH]1	nt	0.8
CCOC(=O)Nc1ccc2c(CCl)cc(=O)oc2c1	-14.0	-0.1
COc1cc(C2C3=C(CC(C)(C)CC3=O)Nc3[nH]c(=O)[nH]c(=O)c32)cc(OC)c1OC (configuration not stated)	7.0	nt
Cc1cc(=O)n2nc(N(C)CC(=O)NCc3ccccc3)sc2n1	7.0	-0.3
COCCOC(=O)C1=C(C)NC(C)=C(C(=O)OCCOC)C1c1cn(-c2ccccc2)nc1-c1cccs1	nt	-1.0

Going on with the list.
SMILES	Sa helicase inh	MgrA DNA FP
COCCN1CCn2c(nc3cc(Nc4nnc(C)c5ccccc45)ccc32)C1	2.0	-2.7
O=C(CN1CCCN(Cc2ccccc2)S1(=O)=O)NCCc1ccccc1	22.0	nt
S=C1NNC2(CC3CC2C2CCCC32)NN1 (configuration not stated)	9.0	3.9
O=C(O)c1ccc(NC(=S)N2CCCCC2)cc1	3.0	-3.8
Cc1ccccc1C(=O)Nc1ccccc1N1CCN(C)CC1	2.0	-1.4
Cc1cccc(Nc2cc(C)nc3ccccc23)c1	9.0	2.8
NC(=O)N/N=C/c1sc(=O)n(Cc2cccc(C(=O)O)c2)c1Cl	-6.0	nt
COc1ccc(-c2nc(-c3ccc(C)cc3C)cs2)cc1	nt	4.9
COc1ccc(C2Nn3c(nnc3C3CC3)SC2C(=O)c2ccc(F)cc2)cc1 (configuration not stated)	-4.0	nt
O=C(Nc1c[nH]c(=O)[nH]c1=O)c1cccc(C(=O)Nc2c[nH]c(=O)[nH]c2=O)c1	-4.0	-2.4
CC1=CC2=C(C1=O)C(C(C)C)C(C#N)=C(N)S2 (configuration not stated)	13.0	7.0
CCN(Cc1ccccc1)C(=O)Cn1c(=O)n(NC(=O)c2ccccc2)c(=O)c2sccc21	2.0	0.2
Cc1cc2cc(CNC(=O)CCC(=O)O)ccc2n1C	12.0	nt
C=CCOC(=O)C1=C(C)NC(SCC(N)=O)=C(C#N)C1c1ccccc1 (configuration not stated)	-4.0	10.2
Cc1cccc(NCN2C(=O)c3ccccc3C2=O)c1C	nt	-0.6
COC(=O)c1sccc1Oc1ccc(C(F)(F)F)cc1NC(=O)c1ccco1	nt	-1.4
COc1cc(-c2cc(-c3ccccc3)nc(SCC(=O)Nc3ncccn3)c2C#N)cc(OC)c1OC	nt	-2.8
COC(=O)c1ccc(CN)cc1	-5.0	-1.0
O=C(COc1ccc(F)cc1)N(CC1=CCS(=O)(=O)C1)c1ccccc1	-3.0	nt
COc1cccc(CNC(=O)Cn2c(=O)c3cccn3c3ccc(F)cc32)c1	16.0	nt
O=c1c2ccccc2n(Cc2cc(=O)n3ccccc3n2)c(=O)n1CCCS(=O)(=O)C1CCCCC1	22.0	nt
Cc1cccc(NC(=O)Cn2cnc3sc(C)c(S(=O)(=O)N4CCC(C)CC4)c3c2=O)n1	-24.0	nt
Cc1ccc(C(=O)Oc2ccc(C3Oc4ccccc4C4CC(c5ccc(Br)cc5)=NN43)cc2)cc1 (configuration not stated)	nt	2.1
N#C/C(=C\c1ccco1)C(=O)Nc1ccccc1	-11.0	nt
CN(Cc1cccs1)C(=O)[C@@H]1CCCN1C(=O)c1cccs1	6.0	nt
CC1CN(C(=O)CCC(=O)O)c2ccccc2O1 (configuration not stated)	8.0	nt
COC(=O)c1cccc(N=C(N)N=C(N)N)c1	nt	3.2
CC1CCc2c(nc3ncnn3c2NCCN(C)C)C1 (configuration not stated)	18.0	-1.8
O=C1CCCN1c1cccc2ccccc12	-7.0	1.1
CCOC(=O)/C=C1\SCC(=O)N1CC(O)CN1C(=O)CS/C1=C\C(=O)OCC	-11.0	nt
Cc1ccc(S(=O)(=O)N2c3ccccc3C(C)(c3ccccc3)CC2(C)C)cc1 (configuration not stated)	5.0	-0.2
CC(C)(C)CC(=O)N1CCN(c2cc(C(F)(F)F)ccn2)CC1	nt	-0.4
Cc1oc(-c2ccc(Cl)cc2)nc1CS(=O)CC(=O)NC1CCCC1 (configuration not stated)	-1.0	nt
O=C(CCc1ccccc1)NN1C(=O)CCC1=O	10.0	-0.5
O=C(O)CCC12CC3CC(CC(Cl)(C3)C1)C2	9.0	0.3
CCSc1nc2sc3c(c2c(=O)n1-c1ccccc1)CCN(C)C3	8.0	nt
CSc1ncccc1C(=O)OC(C)C(N)=O (configuration not stated)	8.0	nt
CC(=O)Nc1cc(Cl)ccc1N1CCOCC1	8.0	-2.0
O=C(NNc1ccccc1)Nc1ccccc1F	-6.0	nt
CC1CCc2c(cnc3ncnn23)C1 (configuration not stated)	-8.0	nt
COC(=O)COc1ccc(Oc2cc(C)nc(SC)n2)nn1	9.0	nt

Only part of the results is shown (hit frequency here may not be typical).
